Env fusion inh: HIV envelope-mediated fusion inhibition | HeLa-JRFL Env/CEM21 cell fusion, luciferase | inhibition, % at 12.3 µM | 360,000 tested, 1.1% active | AID 651610;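 active means mean replicate inhibition score of at least 50 and every replicate individually at or above 50; inconclusive means only one of the two criteria met; inactive means mean below 50 and not all replicates reaching 50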;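 further: 0% = plate neutral controls and 100% = maraviroc near 300 nM; one replicate is shown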
CSC inhib: cancer stem cell inhibition | cancer stem cell-like cells viability, luminescence | inhibition, % at 7.5 µM | 300,000 tested, 1.1% active | AID 2717;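 active means mean at 75% or more and at least half the replicates too; inconclusive means mean and replicates disagree; tested in HMLE shEcad cells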;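 further: 0% = median of negative and 100% = median of positive control wells; the first replicate is given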
Rce1 inh: yeast Ras-converting enzyme inhibition; Q03530; yeast membranes, quenched prenylated peptide cleavage fluorescence; calls only; 290,000 tested, 0.27% active;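 active means fall in fluorescence gain of 50% or more versus controls, with final raw signal at or below 3038400; inconclusive means same 50% fall but final raw signal above 3038400; inactive means fall in fluorescence gain under 50%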;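 further: plate controls were neutral control wells for no effect and wells lacking membranes for full effect; tested at 10 µM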
eIF4H FP inh: inhibitors of RNA binding by human eIF4H; Q15056; eIF4H fluorescence polarization binding assay; inhibition, % at 35 µM; 290,000 tested, 0.94% active; AID 2012;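 active means 50% or more with normal probe brightness, or confirmed in later tests; inconclusive means above 50% with abnormal brightness, or retests that disagree; inactive means below 50% or failed in later tests; about a fifth of its hits are not listed in these tables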;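 further: calls also rest on retests at 20 µM and on dose response follow-up; 0% = protein and probe with vehicle and 100% = probe without protein; strong numbers were not always called active; many hits fall short of the cut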
UUG fidelity: modulators of start codon recognition fidelity in yeast; S. cerevisiae UUG-firefly luciferase reporter, luminescence/redox ratio; activity score, % at 18.7 µM; 350,000 tested, 0.13% active; AID 602363;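 active means replicate mean at a twofold rise or more, about +100% in these data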;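 further: firefly luciferase made from a UUG start codon reports start codon fidelity; reporter light over untreated wells divided by growth signal over untreated wells; some hits fall short of that in this replicate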
PABP polyA inh: PABP-poly(A) binding inhibition | inhibition, % at 35 µM | 290,000 tested, 1% active | PABP-poly(A) RNA binding, fluorescence polarization | P11940 | AID 2014;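 active means 50% or more with normal probe brightness, or confirmed in later tests; inconclusive means above 50% with abnormal brightness, or retests that disagree; inactive means below 50% or failed in later tests; about a fifth of its hits are not listed in these tables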;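 further: calls also rest on retests at 20 µM and on dose response follow-up; controls were probe without protein and protein plus probe with vehicle; some compounds called inactive have numbers as strong as hits; many hits fall short of the cut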
Target sequence (P11940 whole entry, looked up): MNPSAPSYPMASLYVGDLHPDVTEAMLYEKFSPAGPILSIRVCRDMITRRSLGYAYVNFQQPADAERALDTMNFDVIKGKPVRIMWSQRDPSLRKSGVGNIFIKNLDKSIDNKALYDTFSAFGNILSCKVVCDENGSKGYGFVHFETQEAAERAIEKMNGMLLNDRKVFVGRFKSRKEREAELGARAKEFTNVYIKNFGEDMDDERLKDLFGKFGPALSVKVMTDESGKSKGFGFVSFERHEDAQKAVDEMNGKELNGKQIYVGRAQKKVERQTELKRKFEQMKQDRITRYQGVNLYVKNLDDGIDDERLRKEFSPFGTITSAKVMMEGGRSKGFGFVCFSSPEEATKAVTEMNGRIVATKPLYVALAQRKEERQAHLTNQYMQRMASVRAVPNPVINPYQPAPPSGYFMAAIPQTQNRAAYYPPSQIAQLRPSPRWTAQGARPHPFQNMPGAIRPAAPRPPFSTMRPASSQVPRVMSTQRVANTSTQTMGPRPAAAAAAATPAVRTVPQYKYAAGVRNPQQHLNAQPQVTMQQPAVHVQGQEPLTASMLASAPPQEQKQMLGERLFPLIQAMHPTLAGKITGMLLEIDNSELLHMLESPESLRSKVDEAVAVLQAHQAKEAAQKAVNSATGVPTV
MT1-MMP act inh: MT1-MMP (human) activation inhibition | AID 651647 | P50281 | HT1080 RFP-PRO-GFP cells, GFP/RFP ratio fluorescence, overnight; percent of plate control window, DMSO zero | 360,000 tested, 0.061% active | GFP/RFP ratio change, % at 20 µM;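 active means GFP/RFP ratio change of at least 30% with cell ATP level not reduced by more than half and red fluorescence within 50% of control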; further: strong numbers were not always called active
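Assay system – RFP-PRO-GFP reporter HT1080 cells · Compound dosing – single dose of 20 µM compound, 1% DMSO final · Incubation – overnight compound exposure at 37 °C · Measure – GFP/RFP fluorescence ratio · Benchmarks – DMSO wells and RFP-L50D-GFP cells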
eIF4H FP inh retest: also measured in eIF4H FP inh; calls as there; inhibition, %; compound at 20 µM; confirmation average;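 mean of two retest wells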
PABP polyA inh retest: further read-out of PABP polyA inh, marked with its call; inhibition, %; compound at 20 µM; confirmation repeats;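 mean of two retest wells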
MT1-MMP act inh RFP: second read-out of MT1-MMP act inh, no call of its own (marks repeat the call); RFP signal change, %; measured here: RFP expression control read;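 0 = vehicle wells; hits needed this value within 50% of zero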
* hit, by the source's call; i = inactive; u = inconclusive; x = no result given; & = joins results of further samples.

SMILES	Env fusion inh	CSC inhib	Rce1 inh	eIF4H FP inh	UUG fidelity	PABP polyA inh	MT1-MMP act inh	MT1-MMP act inh RFP	others
COc1ccc(N2CCSC2C(=O)NN)cc1 (centres undefined)	x	5	x	-6	-13	8	3	4
CN1CC(=O)N(CC(=O)NC2CCCCC2)C1=O	-2	-4	x	x	-11	x	1	6
CC(C)CN(C(=O)CCC(=O)OCC(=O)N(C)c1ccccc1)c1c(N)n(CC(C)C)c(=O)[nH]c1=O	-4	-21	i	x	-19	x	0	2
Cc1ccc(C(=O)N/C(=C/c2ccco2)C(=O)Nc2cccc(C)c2)cc1	x	3	i	12	-9	-1	-7	2
COc1cccc(/C=C2\SC(=O)N(CC(=O)NC3CCS(=O)(=O)C3)C2=O)c1 (centres undefined)	-8	9	i	-7	x	-10	-1	-1
CN(C)CCN(C(=O)CCS(=O)(=O)c1ccccc1)c1nc2cc3c(cc2s1)OCO3	-64	-6	i	6	9	3	-2	2
Cc1ccc2c(c1)c(C)c(C)n2CC(O)CN1CCOCC1 (centres undefined)	-85	-17	i	10	-9	-3	10	11
CCCc1ccc(OCc2ccc(C(=O)N3CCN(c4ccccn4)CC3)o2)c(OC)c1	16	26	i	-6	-8	-2	-4	-12
Cc1cc(SCC(=O)O)nc2ccccc12	4&-5	-11	i	-3&-19	5	14&6	2&-1	5&3
CN(C(=O)CN1C(=O)NC2(CCCc3ccccc32)C1=O)C1CCCCC1 (centres undefined)	x	-3	x	x	1	x	1	0
Cc1ccc(N2C(=O)CC(Sc3ncn[nH]3)C2=O)cc1 (centres undefined)	x	-19	i	-9	-12	-9	-2	-4
O=C(Nc1cccc(C(=O)O)c1)/C(=C/c1cccc([N+](=O)[O-])c1)NC(=O)c1cccc(Br)c1	8	-10	i	x	x	x	3	-1
O=S(=O)(NC1CCCCC1)c1ccc(Cl)nc1	-7	5	i	1	-10	2	-1	5
CSc1ccccc1-c1nnc(-c2ccccc2)o1	x	x	i	1	-8	-1	-1	3
O=C(CC12CC3CC(CC(C3)C1)C2)NC(=S)NCc1ccccc1	11	-10	i	6	-9	22	-13	-12
CC(C)S(=O)(=O)c1csc(C(=O)Nc2ccc(F)cc2)c1N	-124	0	i	3	x	0	4	-1
Cc1ccc(NC(=O)CSc2n[nH]c(-c3ccncc3)n2)cc1C	x	12	i	-1	3	-5	1	5
COc1ccccc1CN1C(=O)C(C)ON=C1c1ccccc1F (centres undefined)	-6	x	x	x	1	x	6	2
CCC(COC(=O)Nc1ccccc1)NC(=O)OC(C)C (centres undefined)	-10	-5	i	2	x	-4	2	4
CC1CCN(C(=O)CSc2nnc(CSc3ncccn3)n2C)CC1	-22	-12	i	6	-17	14	1	5
O=C(NNC(=O)c1ccccc1-n1cccc1)c1cncc(Br)c1	3	-1	x	x	-1	x	-3	2
O=C(c1ccc(-n2cncn2)c([N+](=O)[O-])c1)N1CCN(S(=O)(=O)c2ccccc2Br)CC1	x	-4	i	x	-7	x	1	5
O=C(Nc1ccc(N2CCOCC2)c(Cl)c1)c1ccc2c(c1)OCCO2	-29	27	i	-3	-5	-2	7	-7
C=CCN1C(=O)/C(=C2/Sc3ccc(OC)cc3N2C)SC1=NCc1ccccc1	9	-6	i	2	-19	5	-8	2
CCC1(c2ccc(F)cc2)NC(=O)N(CC(=O)N2c3ccccc3NC(=O)C2(C)C)C1=O (centres undefined)	0	5	i	x	x	x	-1	-1
COc1ccc(CNC(=O)C2Cc3cc(S(=O)(=O)N4CCCC4)ccc3N2C(C)=O)c(OC)c1 (centres undefined)	-3	-8	i	4	-15	6	-2	3
Cc1cc(C)n(-c2nnc(C)n2NC(=O)c2cccc(Cl)c2)n1	-2	-6	i	-9	-21	2	-1	-4
CN1CC(=O)N(CC(=O)Nc2ccc(F)cc2)c2ccccc2C1=O	-40	5	x	-2	-8	2	-4	2
Cc1ccccc1C(=O)NC(=S)N(CCO)Cc1ccccc1	-6	-11	i	-9	0	8	-1	-1
O=C(NCc1ccccc1)c1cc(C2CCCCN2S(=O)(=O)c2cccs2)on1 (centres undefined)	-10	x	x	x	-13	x	1	-4
COc1ccc(Cl)cc1NC(=S)N(Cc1ccccc1C)CC1CCC(C(=O)O)CC1 (centres undefined)	3	1	i	0	-17	2	-2	-4
NC(COCc1ccccc1)c1csc(Nc2ccccn2)n1 (centres undefined)	18	x	x	x	-22	x	3	7
Cc1nc(N2CCCCC2)c2c(C)c(C(=O)Nc3ccc4c(c3)OCCO4)sc2n1	8	3	i	1	-14	12	2	-1
CN1CCN(C(=O)/C(=C/c2cn(S(=O)(=O)N(C)C)c3ccccc23)NC(=O)c2ccccc2)CC1	8	-4	i	-11	x	-3	-2	3
O=C(Nc1cc(S(=O)(=O)N2CCCCC2)ccc1Cl)c1ccc(F)cc1	10	x	x	x	-17	x	4	-6
CCOc1ncccc1C(=O)Nc1nnc(C(CC)CC)s1	3	-6	i	-6	x	4	-1	0
CC(=O)N(c1ccccc1C)S(=O)(=O)c1ccc(Cl)cc1	1	3	i	5	x	u	-2	-2
CN(C)Cc1ccccc1Sc1ccc2c(c1)CCCC2	1	37	i	x	-13	x	-2	-2
CCC(C)[C@H](NC(=O)NCC1CCCO1)C(=O)OC (some centres undefined)	-25	-5	i	0	-17	-15	3	3
Cc1ccc(NC(=O)c2ccc(CNc3c(N4CCC(C)CC4)c(=O)c3=O)cc2)cc1	25	-10	i	-2	-11	0	-2	-4
O=C(O)C1CC(c2ccccc2)=NO1 (centres undefined)	-43	-2	i	42	1	15	3	5
CCNC(=O)C1(C)CCCN(Cc2noc(-c3ccccc3OC)n2)C1 (centres undefined)	13	x	x	x	-15	x	-4	1
CCN(CC)CCCN1C(=O)C(=O)/C(=C(/O)c2ccc3c(c2)OCCO3)C1c1ccco1 (centres undefined)	16	5	i	-3	-16	0	-5	4
CC1CC(C(F)(F)F)n2nc(C(=O)O)cc2N1 (centres undefined)	36	-17	i	6	-4	7	3	4
Cn1c(SCC#N)nnc1-c1cccnc1	1	x	i	10	x	26	2	5
COc1ccc(S(=O)(=O)N2CCN(Cc3ccccc3)CC2)cc1OC	-18	-16	i	-15	-2	-2	5	-3
Cc1cc(C)n(-c2nc(Nc3ccccc3C(F)(F)F)nc(-n3nc(C)cc3C)n2)n1	x	59	i	-3	x	16	-14	-31
Cc1c(OCC(=O)N[C@H](C(=O)O)c2ccccc2)ccc2c3c(c(=O)oc12)CCCC3	x	0	i	33	-3	29	-4	1

The last four records of the section above open the next one.
SMILES	Env fusion inh	CSC inhib	Rce1 inh	eIF4H FP inh	UUG fidelity	PABP polyA inh	MT1-MMP act inh	MT1-MMP act inh RFP	others
Cn1c(SCC#N)nnc1-c1cccnc1	1	x	i	10	x	26	2	5
COc1ccc(S(=O)(=O)N2CCN(Cc3ccccc3)CC2)cc1OC	-18	-16	i	-15	-2	-2	5	-3
Cc1cc(C)n(-c2nc(Nc3ccccc3C(F)(F)F)nc(-n3nc(C)cc3C)n2)n1	x	59	i	-3	x	16	-14	-31
Cc1c(OCC(=O)N[C@H](C(=O)O)c2ccccc2)ccc2c3c(c(=O)oc12)CCCC3	x	0	i	33	-3	29	-4	1
CCOC(=O)C1=C(N)Oc2c(c(=O)[nH]c3ccccc23)C1c1ccccc1 (centres undefined)	-35	-5	i	2	-16	19	-4	1
COc1ccccc1Nc1nc(C)cc(C)c1C(N)=O	x	11	i	-1	-14	5	6	1
Nc1ncc(-n2cncn2)c(-c2ccc(Cl)cc2)n1	7	4	i	-2	-5	4	-1	3
COc1ccc(S(=O)(=O)N2CCOC23CCN(S(=O)(=O)c2ccc(F)cc2)CC3)cc1	6	0	i	x	-9	x	1	-2
O=C(CC(Nc1ccccc1Cl)C(=O)O)c1ccccc1 (centres undefined)	-94	-10	i	2	x	-4	2	0
CN(CC(O)COc1ccc(S(=O)(=O)N2CCOCC2)cc1)C1CCCCC1 (centres undefined)	-42	10	i	4	-9	-6	1	-2
Cc1ccc(NC(=O)C2CC(=O)N(CCc3ccccc3)C2)c(C)c1 (centres undefined)	8	-1	i	-4	22	-9	3	1
O=C(Cn1ccsc1=NC(=O)c1ccco1)c1ccccc1	11	x	i	-2	-9	5	8	5
N#C/C(=C\c1ccccc1[N+](=O)[O-])C(=O)NCc1ccccc1	-4	3	i	69*	x	41*	-126	7	eIF4H FP inh retest=82*;PABP polyA inh retest=54*
COc1ccc(NCc2cc3ccccc3[nH]c2=O)cc1	-125	-17	i	39	-14	27	-1	-2
COc1ccc(NC(=O)CC2SC(=Nc3ccccc3)NC2=O)c(OC)c1 (centres undefined)	-8	8	i	-6	-11	-11	-4	1
N#CCCN(C(=O)COc1ccc(C#N)cc1)c1ccc(F)cc1	-3	-19	i	1	-1	-11	3	5
Cc1ccc(-n2c(SCC(=O)OC(C)C)nnc2-c2ccccn2)cc1	-74	3	i	-5	-13	-4	-9	3
COc1ccc(NC(=O)/C(Cl)=C(/Cl)S(=O)Cc2ccc(C)cc2)cn1 (centres undefined)	x	112*	i	1	-28	-15	-11	-29
CC(C(=O)NC(c1ccccc1)c1ccccc1)N1CCOCC1 (centres undefined)	-2	-21	i	-6	-13	10	-2	2
COC(=O)C1=C(C(=O)OC)[C@@H]2Nc3ccccc3[C@@]23C[C@@H](C(=O)OC)N(C(=O)COCc2ccccc2)C3=N1	-4	14	i	x	-15	x	1	2
CC(C)CCOP(=O)(c1ccc(N(C)C)cc1)C(O)c1c(Cl)cccc1Cl (centres undefined)	75*	2	i	-2	4	0	-1	-2
O=C(OCc1ccccc1Cl)c1ccccc1C(=O)c1ccccc1	-9	5	i	0	-9	6	-3	-3

Ordered by molar mass (descending): part of the list above.
SMILES	Env fusion inh	CSC inhib	Rce1 inh	eIF4H FP inh	UUG fidelity	PABP polyA inh	MT1-MMP act inh	MT1-MMP act inh RFP	others
COC(=O)C1=C(C(=O)OC)[C@@H]2Nc3ccccc3[C@@]23C[C@@H](C(=O)OC)N(C(=O)COCc2ccccc2)C3=N1	-4	14	i	x	-15	x	1	2
CC(C)CCOP(=O)(c1ccc(N(C)C)cc1)C(O)c1c(Cl)cccc1Cl (centres undefined)	75*	2	i	-2	4	0	-1	-2
O=C(OCc1ccccc1Cl)c1ccccc1C(=O)c1ccccc1	-9	5	i	0	-9	6	-3	-3
CC(C(=O)NC(c1ccccc1)c1ccccc1)N1CCOCC1 (centres undefined)	-2	-21	i	-6	-13	10	-2	2
